# Lassa entry inh = inhibitors of Lassa virus binding or cell entry; Lassa virus pseudotype entry inhibition, cell reporter; control for the full effect not named in the record; Potency, µM (titrated, usually from 37.9 µM), without a hit: top-dose activity change, negative = inhibition, usual class: inhibitors; 300,000 compounds, 1.2% hits; active means well fitted inhibition curve with a large enough effect; inconclusive means small, poorly fitted or top-dose-only effect, or effect the other way; inactive means flat fitted curve, though single readings scatter; tested in HEK293 cells; also: % is scaled to controls: 0 for no effect and ±100 for the full control effect; nearly all actives have a fitted effect of over 50% in size; luciferase read-out
# Cruzain Triton = cruzain (T. cruzi) inhibition with detergent; P25779; purified cruzain, Z-FR-AMC fluorescence, 0.01% Triton; Potency, µM, for inactives: max response, negative = inhibition, usual class: inhibitors; 200,000 compounds, 0.43% hits;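 also: plate controls were neutral wells for no effect and buffer without enzyme for full effect; nearly all actives have a fitted effect of over 40% in size; top concentration of the series not given in the record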
# Target sequence (P25779 123-467 limits assumed): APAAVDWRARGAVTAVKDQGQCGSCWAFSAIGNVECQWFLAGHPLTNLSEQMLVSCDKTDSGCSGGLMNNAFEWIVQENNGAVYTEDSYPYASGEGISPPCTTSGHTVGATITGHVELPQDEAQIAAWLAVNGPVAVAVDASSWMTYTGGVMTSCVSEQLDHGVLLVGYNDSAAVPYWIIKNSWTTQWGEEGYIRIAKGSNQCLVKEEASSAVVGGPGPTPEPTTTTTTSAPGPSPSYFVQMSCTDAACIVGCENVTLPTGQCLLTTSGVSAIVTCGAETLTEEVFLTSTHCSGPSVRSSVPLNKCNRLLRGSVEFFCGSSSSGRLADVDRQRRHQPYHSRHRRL
#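 Cruzain (1.5 nM) preincubated 15 min at RT with compound in 100 mM sodium acetate pH 5.5, 5 mM DTT, 0.01% Triton X-100. Reaction started with 2 uM Z-FR-AMC; AMC fluorescence (ex 360/em 450 nm) change over 60 s gave rate.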
# Cruzain noTriton = blocks cruzain activity in detergent-free assay | Potency, µM, without a hit: max response, negative = inhibition, hits mostly inhibitors | AID 1476 | purified cruzain, Z-FR-AMC fluorescence, no detergent | 200,000 compounds, 2.3% hits | P25779;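 also: plate controls were enzyme without inhibitor for no effect and buffer without enzyme for full effect; nearly all actives have a fitted effect of over 40% in size; top concentration of the series not given in the record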
#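 Purified cruzain at 1.5 nM, pre-incubated 15 min with compound at room temperature in 100 mM sodium acetate pH 5.5, 5 mM DTT, 0.00005% Triton X-100. Reaction started with 2 uM Z-FR-AMC; AMC fluorescence increase over 60 s gives rate.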
# 2A StopGo = lowers the luciferase signal of an FMDV 2A StopGo reporter. human cells with a luciferase reporter of 2A StopGo recoding; control for the full effect not named in the record. Potency, µM (titrated, usually from 57.9 µM), inactives show top-dose signal change, negative = less light. 410,000 compounds, 1.2% hits. AID 1159524; active = well fitted falling curve with a large enough effect; inconclusive = small, poorly fitted or top-dose-only effect; inactive = no such curve, though single readings can be large or run the other way; tested in HEK293T cells; also: % is scaled to controls: 0 for no effect and ±100 for the full control effect; nearly all actives have a fitted effect of over 45% in size; luciferase light after 4 h
# Marburg entry inh = blocks Marburg virus binding to or entry into cells. Marburg virus pseudotyped entry inhibition, cell reporter; control for the full effect not named in the record; about a third of the inactives were read at about 46 µM. AID 540276. Potency, µM (highest dose often 37.8 µM), without a hit: top-dose activity change, negative = inhibition, most hits filed as inhibitors. 300,000 compounds, 1.8% hits; active = well fitted inhibition curve with a large enough effect; inconclusive = small, poorly fitted or top-dose-only effect, or effect the other way; inactive = flat fitted curve, though single readings scatter; tested in HEK293 cells; about a fifth of its hits are not listed in these tables; also: % is scaled to controls: 0 for no effect and ±100 for the full control effect; luciferase read-out
# SARS PLP yeast = blocks SARS-CoV papain-like protease in a yeast assay. S. cerevisiae expressing SARS-CoV PLpro, growth rescue; control for the full effect not named in the record. Potency, µM (doses to about 32.9 µM), inactives show at the top dose activity, positive = growth rescue. 330,000 compounds, 0.19% hits. AID 485353; active means well fitted rising curve with a large enough effect; inconclusive means small, poorly fitted or top-dose-only effect; inactive means no such curve, though single readings can be large or run the other way; also: 0% is about no effect; nearly all actives have a fitted effect of over 55% in size; growth read by luminescence after 48 h
# NS1 function inh = blocks influenza NS1 protein function; S. cerevisiae slowed by influenza A NS1, growth recovery by OD600; Potency, µM (top dose mostly 46.1 µM), inactives show at the top dose activity, positive = more growth; 270,000 compounds, 0.4% hits; AID 2326; active means well fitted rising curve with a large enough effect; inconclusive means small, poorly fitted or top-dose-only effect; inactive means no such curve, though single readings can be large or run the other way; also: nearly all actives have a fitted effect of over 50% in size
#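 Recovery from NS1-induced slow growth read by OD600 in budding yeast switched to galactose assay medium (pH 6.0, -URA) at 1:100 dilution. Compound 23 nl per well; the matching strain lacking NS1 serves as control.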
# RE007 growth inh = less growth of the S. pombe RE007 Vpr strain; Potency, µM (top dose mostly 92.2 µM), inactives show at the highest dose activity change, negative = less growth; 360,000 compounds, 0.21% hits; S. pombe RE007 Vpr strain, BacTiter-Glo ATP luminescence, 24 h; control for the full effect not named in the record; active = well fitted falling curve with a large enough effect; inconclusive = small, poorly fitted or top-dose-only effect; inactive = no such curve, though single readings can be large or run the other way;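 also: % is scaled to controls: 0 for no effect and ±100 for the full control effect; nearly all actives have a fitted effect of over 50% in size; the assay follows cell death caused by Vpr and the record does not say whether a fall means rescue or toxicity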
#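 Fission yeast RE007 carrying one integrated HIV-1 vpr copy, seeded at OD 0.01 in PMG+AL medium with 23 nL pinned compound. Grown 24 h at 30 degrees; viability read by BacTiter-Glo luminescence after 5 min.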
# * marks the source's active call; other numbers are inactive results; ? = inconclusive; . = no result given; [ ] = dose if it differs, or a comment. Unless noted, calls follow the shape of the dose curve; as a rule, active = well fitted curve in the direction sought with a large enough effect; inconclusive = small, poorly fitted or top-dose-only effect, or another doubt; inactive = no such curve, though single readings can be large; an effect the other way counts as inactive or inconclusive. Potency is read from the fitted curve at half-maximal effect.
SMILES,Lassa entry inh,Cruzain Triton,Cruzain noTriton,2A StopGo,Marburg entry inh,SARS PLP yeast,NS1 function inh,RE007 growth inh
Cc1cc(C)cc(NS(=O)(=O)c2ccc3[nH]cc(C(=O)N4CCCC4)c(=O)c3c2)c1,9%[46.1 µM],-3.3%,1%,48%[activator],3%[46.1 µM],.,.,.
CCOC(=O)C1(CCc2ccccc2)CCN(Cc2cccc3nccnc23)CC1,.,.,.,?,.,0%,0%,-12%
COC(=O)c1cccc(NC(=O)CN(c2ccc3c(c2)OCO3)S(C)(=O)=O)c1C,-5%,6.3%,-2%,11%,29%,8%,-9%,9%
CCOC(=O)c1c(NC(=O)Cc2ccccc2)sc2c1CCN(C)C2,.,.,.,-1%,.,?,-5%,-23%
Cc1[nH]c2ccccc2c1C(c1ccccn1)N1CCC(C)CC1 (stereo not given),?,3.6%,-1%,?,?,-3%,-11%,-18%
Cc1ccc(C)c(C(=O)CN2C(=O)C(=O)N(C3CCCC3)C2=O)c1,9%,.,.,-14%,19%,-1%,.,9%
COc1ccc(N2CCN(C(=O)CCNC(=O)c3ccc(Br)cc3)CC2)cc1,-23%,.,.,-21%,0%,3%,.,1%
O=C(CSc1nnnn1Cc1ccccc1)c1ccccc1F,-9%,.,.,40%[activator],1%,5%,6%,0%
O=[N+]([O-])c1ccc(N2CCN(S(=O)(=O)Cc3ccccc3)CC2)cc1N1CCOCC1,13µM*,-3.6%,7%,?,?,7%,0%,-9%
CC(C)C(OC(=O)c1nsc(Cl)c1Cl)C(=O)NCC1CCCO1 (stereo not given),?,.,.,17%,-26%[46.1 µM],7%,2%,9%
Cc1nn2c(N)c(C#N)cnc2c1-c1ccccc1,15%,-4.8%,10%,3%,-1%,-25%,6%,8%
CCSc1nc(-c2ccc(OC)cc2)nc2c1Cc1c(CO)cnc(C)c1O2,-6%[46.1 µM],-0.8%,15%,-11%,.,.,.,.
CCC(c1nnnn1Cc1ccc(OC)cc1)N1CCN(c2ccc(OC)cc2)CC1 (stereo not given),-13%,.,.,?,?,0%,-6%,33%
COc1ccc(-n2nnnc2SCC(=O)NCCc2ccc(OC)c(OC)c2)cc1,-28%,1.2%,-1%,.,13%,-3%,-7%,0%
Cc1ccc(S(=O)(=O)N(C)CC(=O)Nc2nc3ccccc3s2)cc1,-1%,-4.9%,-16%,?,?,-15%,-53%,-4%
NC(=O)c1sc2nc3c(c(-c4cccnc4)c2c1N)CCC3,15%,-2.2%,-3%,.,-1%,22%,2%,12%
COCCNC(=S)N1CCC(C(=O)c2ccc(C)cc2)CC1,.,.,.,-16%,.,0%,-4%,2%
Cc1ccccc1NC(=O)CSc1nc(N)c(C#N)c(-c2cccs2)c1C#N,-7%,-7.6%,-28%,0%,?,0%,-28%,0%
COc1ccc(N2CCN(C(=O)COC(=O)[C@@H](NC(=O)c3ccccc3Cl)C(C)C)CC2)cc1,-8%,.,.,-1%,-17%[46.1 µM],.,.,4%
CCOC(=O)c1cnc2ccc(C(=O)OC)cc2c1Nc1ccccc1CC,17%[46.1 µM],-12%,14%,-28%,?,.,.,.
Cc1ccc(C(=O)C2CCN(CC(=O)Nc3ccc(N(C)C)cc3)CC2)cc1,-2%,1.0%,-4%,-14%,?,0%,-6%,-8%
COc1cn(CC(=O)Nc2ccc(C)cc2C)c(CN2CCCCC2)cc1=O,-4%[46.1 µM],2.6%,9%,5%,.,.,.,.
CCN(CC)CCN(Cc1cc2cc3c(cc2[nH]c1=O)OCCO3)C(=S)NCC(C)C,?,.,.,-10%,11µM*,-4%,13%,1%
CCN(CC(=O)Nc1c(F)cccc1F)C(=O)C(C)SCc1nc2sc(C)c(C)c2c(=O)[nH]1 (stereo not given),-22%,.,.,-19%,-4%,0%,21%,-29%
CCOCCCNC(=O)CN1C(=O)/C(=C\c2ccc(C)cc2)Sc2ccccc21,-3%,-4.1%,?,1%,-7%,-18%,-16%,0%
CN(C)c1ccc(/C=N/n2c(C3CCCCC3)n[nH]c2=S)cc1,?,.,.,-15%,2.2µM*,-1%,-2%,9%
NC(=NCc1ccco1)NC(=O)c1ccccc1,.,.,.,45%[activator],.,-4%,0%,-14%
O=C(O/N=C1\CCS(=O)(=O)c2sccc21)c1ccccc1,13%,-2.7%,-2%,21%,11%,-5%,3%,-14%
COc1ccc(/C=C/C(=O)OCC(=O)Nc2ccc(OC)c(S(=O)(=O)N3CCCCC3)c2)cc1,-17%,-9.2%,-3%,20%,4%,11%,18%,-9%
CC(C)(C)C1CCc2onc(C(=O)Nc3cccnc3)c2C1 (stereo not given),2%,-2.2%,8%,-29%,?,-5%,-32%,3%
COC(=O)CCC(=O)Nc1sc2c(c1C#N)CCCC2,-7%,-1.2%,0%,-18%,14%,-1%,-50%,-23%
Cc1onc(-c2c(Cl)cccc2Cl)c1/C(N)=N/OC(=O)C1CC1,.,.,.,-5%,.,0%,3%,-6%
Cc1sc(NC(=O)Cn2[nH]c(=O)c3ccccc3c2=O)nc1-c1ccccc1,-25%,-6.7%,-3%,-16%,?,12%,?,-10%
CN(C)S(=O)(=O)N1C(=O)c2ccccc2C1=O,.,.,.,-11%,.,0%,1%,3%
COc1nc2ccccc2nc1CCC(=O)O,-9%,.,.,-5%,-12%[46.1 µM],0%,4%,10%
N#Cc1nc(-c2ccco2)oc1N1CCN(c2ccccc2)CC1,?,-10%,-9%,?,-18%,-6%,-67%,-3%
CCOC(=O)C1=C(COC(=O)/C=C/c2cccc(OC)c2)NC(=O)NC1C (stereo not given),-21%,.,.,-13%,-11%,2%,-2%,-19%
CC1Oc2ccccc2C=C1/C=N\NC(=O)c1cccnc1 (stereo not given),-1%,.,.,54%[activator],2%,-1%,-6%,5%
Cn1c(=O)oc2cc(S(=O)(=O)N3CCN(Cc4ccc5c(c4)OCO5)CC3)ccc21,-16%,3.0%,1%,-25%,4%,-10%,-19%,11%[3.69 µM]
Cc1cccnc1NC(=O)CN1C(=O)COc2ccc(Cl)cc21,.,.,.,1%,.,-3%,22%,1%
Cc1ccc(S(=O)(=O)Nc2c(C)nn(C)c2C)cc1C,-2%[46.1 µM],.,.,?,-24%,.,.,4%
Cc1nn(Cc2ccccc2Cl)c(Cl)c1/C=C/C(=O)OCC(=O)NC1CCS(=O)(=O)C1 (stereo not given),6%,.,.,-7%,?,0%,.,20%
O=C1N/C(=N\S(=O)(=O)Cc2ccccc2)S/C1=C/c1cccc([N+](=O)[O-])c1,.,.,.,29%,.,0%,-4%,23%
Cc1cccc(C(=O)Nc2ccccc2-c2nc(-c3ccccc3)no2)c1,20%[46.1 µM],-4.0%,-5%,-2%,0%[46.1 µM],.,.,.
Cc1ccc2nc(-c3sc4nc(C)ccc4c3N)[nH]c2c1,?,-9.2%,-25%,?,-7%,-47%,11%,-9%
Fc1ccc(-n2nnc(-c3ccccc3Br)n2)cc1,-16%[46.1 µM],.,.,-16%,-7%[46.1 µM],-3%,?,11%
COc1cc(CCC(=O)OCC(=O)Nc2cccc(S(N)(=O)=O)c2)cc(OC)c1OC,6%,-4.1%,7%,-17%,12%,-1%,7%,7%
COC(=O)C1=C(C)OC(N)=C(C#N)C1c1ccccc1F (stereo not given),-3%,2.9%,0%,-5%,?,-3%,-5%,13%
CC(=O)c1sc(N/N=C\c2ccc(N(C)C)cc2)nc1C,.,.,.,37%[activator],.,6%,-2%,6%
COc1ccc(N2C(=O)CCC(C(=O)NCCCN3CCC(C)CC3)C2c2ccc(OC)c(OC)c2)cc1 (stereo not given),2%[46.1 µM],.,.,-2%,?,-9%,.,5%
COc1ccc(Cn2c(=O)c3oc4ccccc4c3n(Cc3cccc(C(F)(F)F)c3)c2=O)cc1,5%[46.1 µM],-1.1%,6%,-12%,.,.,.,.
O=C(CN1CCC(n2nnc3cc(F)ccc32)CC1)NNC(=O)c1ccccc1,18%,0.1%,2%,.,-2%,-1%,5%,-7%
CCOC(=O)C1C(c2ccccc2O)NC(=O)NC1(O)C(F)(F)F (stereo not given),4%[46.1 µM],.,.,9%,7%[46.1 µM],-1%,-5%,-1%
CSc1nnc(NC(=O)c2nc(S(=O)(=O)Cc3ccccc3)ncc2Cl)s1,?,.,.,6.3µM*,?,1%,14%,-7%
CC(C#Cc1c([C@@H](C)Oc2ccccc2)nnn1Cc1ccccc1)Oc1ccccc1 (stereo not given in full),.,.,.,-26%,.,-1%,0%,-4%
COc1ccc(CCN=C(NS(=O)(=O)c2ccccc2)c2ccccc2)cc1OC,.,.,.,12%,-1%[46.1 µM],-1%,.,22%
NC(=S)N=Nc1c(O)n(Cc2ccc(Br)cc2)c2ccccc12,?,?,?,0%,?,21%,16%,-3%
CSC1=NCCN1C(=O)c1cccc(Br)c1,3%,6.8%,6%,-12%,0%,3%,-7%,17%
CCc1nc2nc(C)c(NS(=O)(=O)c3ccc(Br)s3)c(=O)n2[nH]1,22%,.,.,3%,2%[46.1 µM],2%,8%,-7%
Cc1ccc(C(=O)CS(C)(=O)=O)cc1,4%,2.1%,-1%,-16%,9%,0%,4%,-1%

# (more compounds)
SMILES,Lassa entry inh,Cruzain Triton,Cruzain noTriton,2A StopGo,Marburg entry inh,SARS PLP yeast,NS1 function inh,RE007 growth inh
COc1ccc(-c2[nH]ncc2CN2CCSCC2)c(OC)c1,13%[46.1 µM],.,.,18%,-2%[46.1 µM],-1%,4%,-13%
Cn1ncc([N+](=O)[O-])c1C(=O)Nc1nccs1,16%,-3.3%,6%,-6%,0%,-11%,4%,-6%
Cc1csc(NC(=O)C(C)N2C(=O)c3ccccc3S2(=O)=O)n1 (stereo not given),19%[46.1 µM],.,.,-13%,13%[46.1 µM],-3%,-2%,-1%
CC(C)NC(=O)CN(Cc1ccc(F)cc1)C(=O)CCC(=O)Nc1nccs1,-4%[46.1 µM],.,.,4%,-21%[46.1 µM],2%,-5%,-10%
